# FGF22 binding = shifts melting point of recombinant human FGF22 | 340,000 compounds, 1.5% hits | recombinant FGF22 thermal shift, SYPRO orange fluorescence; percent of sucrose octasulfate shift, DMSO zero | AID 651658 | Q9HCT0 | calls only at 9.99 µM;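 active = melting point raised past a set limit in the mean and every replicate; inconclusive = no clear call; three in four hits are not shown here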
# Target sequence (Q9HCT0 whole entry, looked up): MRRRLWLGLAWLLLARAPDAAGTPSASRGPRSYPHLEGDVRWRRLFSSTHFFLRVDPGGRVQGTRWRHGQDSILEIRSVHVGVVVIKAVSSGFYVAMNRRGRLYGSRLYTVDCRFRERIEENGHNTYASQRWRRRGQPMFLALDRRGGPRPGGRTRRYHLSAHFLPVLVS
# Calb FLC = C. albicans growth modulation with fluconazole; C. albicans CaCi-2 (fluconazole-resistant clinical isolate) + fluconazole, Alamar Blue growth, 48 h; growth inhibition, % (concentration not given with the values); 300,000 compounds, 0.57% hits;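 active = most replicates above 75%; inconclusive = exactly half above 75%; inactive = most below 75%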;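 also: all wells also contain fluconazole at 8 µg/ml as a sub-toxic cotreatment; 0% = median of DMSO wells and 100% = median of geldanamycin control wells; wells of about 8 µL received 7.5 nL stock; the first replicate is given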
# ALR H2O2 inh = blocks human ALR sulfhydryl oxidase activity; P55789; purified ALR, DTT oxidation, H2O2 HRP-luminol luminescence; AID 485317; 290,000 compounds, 3.8% hits; inhibition, % (no concentration beside the values);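 active = mean and each replicate at 75% or more; inconclusive = only one of the two met; inactive = neither met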;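 also: stock transfer was 7.5 nL into about 7.5 µL; 0% = neutral wells and 100% = wells with inactivated enzyme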
# Target sequence (P55789 whole entry, looked up): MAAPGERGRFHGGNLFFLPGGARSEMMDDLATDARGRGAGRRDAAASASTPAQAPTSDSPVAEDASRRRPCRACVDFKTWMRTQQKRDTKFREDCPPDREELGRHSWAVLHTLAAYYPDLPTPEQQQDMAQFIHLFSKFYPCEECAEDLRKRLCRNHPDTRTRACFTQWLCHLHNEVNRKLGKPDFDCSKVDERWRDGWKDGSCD
# MLL AF4-AF9 inh = MLL-AF4/AF9 protein interaction inhibition | AlphaScreen, biotin-AF4 peptide binding to FLAG-AF9 | inhibition, % at 10 µM | 350,000 compounds, 0.47% hits;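 active = every replicate reaching a set inhibition limit, whatever the replicate mean, cut at about 25% in these data; inconclusive = mean inhibition reaches that limit but some replicates miss it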;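 also: 0% = plate neutral control median and 100% = total signal loss; the record names both 10 and 1 µM as test concentration; the first replicate is given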
# Target sequence (P42568 whole entry, looked up): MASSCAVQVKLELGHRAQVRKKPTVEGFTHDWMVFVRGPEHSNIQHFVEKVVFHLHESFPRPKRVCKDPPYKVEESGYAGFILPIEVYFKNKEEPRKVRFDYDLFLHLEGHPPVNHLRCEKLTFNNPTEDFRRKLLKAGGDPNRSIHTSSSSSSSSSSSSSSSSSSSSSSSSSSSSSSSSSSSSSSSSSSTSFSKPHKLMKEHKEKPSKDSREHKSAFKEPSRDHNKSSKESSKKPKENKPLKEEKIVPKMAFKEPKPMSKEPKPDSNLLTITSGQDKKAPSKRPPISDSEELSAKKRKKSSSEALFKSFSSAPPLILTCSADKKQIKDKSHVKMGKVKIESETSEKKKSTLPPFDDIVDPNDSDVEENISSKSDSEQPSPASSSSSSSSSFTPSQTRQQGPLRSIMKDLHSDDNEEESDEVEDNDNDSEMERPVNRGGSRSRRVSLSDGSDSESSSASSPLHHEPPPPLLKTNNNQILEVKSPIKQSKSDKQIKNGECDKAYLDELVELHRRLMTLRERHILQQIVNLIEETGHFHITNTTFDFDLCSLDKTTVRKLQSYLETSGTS
# T cruzi repl = blocks replication of Trypanosoma cruzi; 300,000 compounds, 1.4% hits; AID 1885; inhibition, % (no concentration beside the values); T. cruzi beta-gal in NIH3T3, luminescence, 90 h;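 active = mean inhibition across valid replicates above about 55%, limit read from the data; inconclusive = mean below that limit but half or more replicates reach it; inactive = mean below it, under half of replicates reach it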;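 also: signal also drops with host cell toxicity which is not excluded here; 0% = plate median of DMSO wells and 100% = zero luminescence signal; higher percent means less beta-gal luminescence so fewer parasites; stock transfer was 50 nL into about 50 µL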
# RanGTP-Impb inh = disruptors of Ran-importin-beta complex formation – biochemical, FRET, CFP-Ran, YFP-importin-beta, homogeneous, primary screen; cell-free CFP-Ran/YFP-importin-beta FRET ratio; inhibition, % (test concentration not listed); 300,000 compounds, 1.1% hits; AID 2216;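 active = most replicates above 15%; inconclusive = exactly half above 15%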;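 also: 0% = DMSO wells and 100% = Ran loaded with GDP instead of GTP; wells of about 40 µL received 100 nL stock; the first replicate is given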
# Beta apoptosis = blocks beta cell apoptosis; INS-1E cytokine-induced death, ATP luminescence, 48 h; percent of positive-control rescue, neutral wells zero; protection from apoptosis, % (test concentration not listed); 300,000 compounds, 0.8% hits; AID 435005;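 active = all replicates at 75% or more, or half of them and the mean; inconclusive = half reach 75% but not the mean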;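 also: 0% = cytokine-treated negative control wells and 100% = positive control rescue; higher means more ATP so stronger rescue from cytokine killing; wells of about 40 µL received 100 nL stock; the first replicate is given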
# rRNA inh HTS = inhibits bacterial ribosomal RNA function over humanized ribosomes. 350,000 compounds, 1.6% hits. E. coli WT GFP vs humanized-ribosome RFP mutants, fluorescence, 24 h; hits give low values; DMSO median 0, no signal -100. GFP signal change (wild-type ribosome), % (test concentration not listed);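 active = significant combined selectivity score with lowered wild-type GFP, culture density cut under 30%, mutant RFP and density less affected; inactive = any of these conditions unmet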; also: one replicate is shown; some compounds called inactive have numbers as strong as hits
# rRNA inh HTS OD600 = further read-out of rRNA inh HTS, marked with its call; OD600 change, %; measured here: OD600 growth;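 optical density of the mix in the first replicate; 0 = DMSO median and -100 = no signal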
# rRNA inh HTS RFP = second read-out of rRNA inh HTS, no call of its own (marks repeat the call); RFP signal change, %; measured here: RFP humanized mutant strains;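 first replicate; 0 = DMSO median and -100 = no signal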
# * marks the source's active call; other numbers are inactive results; i = inactive; ? = inconclusive; / = no result given. Some of the compounds tested. The share of hits here may be higher or lower than overall.
SMILES,FGF22 binding,Calb FLC,ALR H2O2 inh,MLL AF4-AF9 inh,T cruzi repl,RanGTP-Impb inh,Beta apoptosis,rRNA inh HTS,rRNA inh HTS OD600,rRNA inh HTS RFP
COc1cccc(CN2CCC(n3nccc3NC(=O)C3CC3)CC2)c1,i,-5.6,-19.5,2.4,3.0,3.5,-1.4,8.8,10.4,0.9
CCCCn1c(SCC(=O)NCc2ccco2)nc2ccccc2c1=O,/,0.2,-3.0,/,1.7,3.3,6.7,/,/,/
COC(=O)[C@H](C(C)C)n1c(C)c(C(C)=O)c(C(C)=O)c1C,/,22.1,0.5,/,4.9,0.3,1.0,/,/,/
CC(=Nc1ccc(C)c(C)c1)C1=C(O)CSC1=O,/,1.0,-1.6,/,-11.8,1.4,-4.0,/,/,/
CS(=O)(=O)N(CC(=O)N1CCN(c2ccccc2)CC1)C1CCCCC1,/,-11.3,/,/,-11.6,2.4,2.2,/,/,/
O=C(O)Cn1c(=O)c(-c2ccccc2)nc2ccccc21,i,1.0,/,-2.5,-8.0,6.4,0.3,6.8,11.5,1.5
CCn1c(=O)c2c3c(sc2n2c(SCc4ccc(F)cc4)nnc12)CCCC3,i,-2.7,-7.6,7.6,30.0,-1.1,1.9,-1.4,1.8,1.1
Cc1nc2ccccc2c(=O)n1Cc1ccc([N+](=O)[O-])cc1,i,-0.4,5.3,1.3,5.2,-2.6,-1.3,12.7,0.8,0.0
C=C(C)Cn1c(NCCOC)nc2c1c(=O)[nH]c(=O)n2C,/,-4.7,6.8,3.7,-20.1,-0.3,-2.2,/,/,/
CC(/C=N/n1c(COc2ccccc2)n[nH]c1=S)=C\c1ccccc1,/,8.2,20.1,/,0.9,-2.0,4.5,-8.0,-3.8,0.2
COc1ccc(CN(C)C(=O)c2cccc(NS(=O)(=O)c3ccccc3)c2)c(OC)c1,i,7.9,21.0,3.0,8.6,-1.2,0.6,-8.0,-20.7,2.5
CN(C)c1cc(NC(=O)CN2CCOCC2)c2ccccc2n1,/,-6.4,-0.6,1.4,-2.1,2.6,-2.5,/,/,/
COc1cccc(C(=O)Nc2nnc(SCC(=O)NC3CC3)s2)c1,i,3.0,1.9,-2.2,6.2,-3.6,1.8,2.1,12.8,-3.2
COc1cc2c(cc1OC)CN(C(=O)CCNS(=O)(=O)c1ccc(Br)cc1)CC2,i,42.9,-1.9,?,-1.2,4.5,-0.2,-5.5,-12.8,2.1
N#Cc1ccc(NC(=O)Cn2c3[n+](c4ccc(C(F)(F)F)cc42)CCCCC3)cc1,i,10.6,-7.0,0.2,-5.1,-10.6,-12.9,-1.3,-9.6,8.8
COc1ccc(C2(C(=O)Nc3nncs3)CCCC2)cc1,/,-6.6,45.6,/,-9.1,-4.3,-2.1,/,/,/
CCN(CC)S(=O)(=O)c1ccc(NCC2COc3ccccc3O2)c([N+](=O)[O-])c1 (stereo not drawn),/,1.2,-1.2,/,43.7,-0.1,19.3,/,/,/
O=C(NC1CC1)c1ccc(CS(=O)c2ccccc2)o1 (stereo not drawn),i,-1.0,-2.3,-0.7,-5.3,?,-11.6,3.0,9.1,-2.9
COc1ccccc1-n1c(CNc2ccc(F)cc2)nnc1SCC(=O)Nc1cc(C)on1,/,-1.2,-1.1,/,-0.1,-0.4,4.5,/,/,/
CCOc1ccc(NC(=S)/C(=C(\[O-])c2ccc(C)c([N+](=O)[O-])c2)[n+]2ccccc2)cc1,/,-1.5,-12.9,/,14.3,?,65.2,/,/,/
CC1=C(C(=O)O)N2C(=O)C(NC(=O)c3nn(C)c(C)c3Cl)C2SC1 (stereo not drawn),/,2.3,/,-9.4,-20.1,-3.2,-0.5,8.3,18.6,-0.9
CNC(=S)Nn1cnc2ccccc21,/,0.1,16.4,4.7,2.6,-0.1,-2.8,-0.9,-10.2,2.8
Cc1cc(C(=O)CSc2n[nH]c(N)n2)c(C)n1-c1ccccc1,/,41.1,23.8,/,10.7,0.7,-4.5,/,/,/
CCN(CC(=O)NCc1cccs1)C(=O)/C=C/c1ccc(Cl)c(Cl)c1,i,-4.6,0.0,3.7,-8.0,/,1.7,-3.4,0.0,0.0
O=c1c2c(nc3cc(-c4ccc(Br)cc4)[nH]n13)CCCC2,i,?,-3.9,-1.0,13.8,-0.5,9.4,11.7,16.0,1.3
CSc1ccccc1NC(=O)Nc1ccc(Cl)cc1,/,-25.8,-1.7,/,6.1,4.9,11.7,/,/,/
O=C(/C=C/c1ccccc1)CC(O)(c1ccccc1)C(F)(F)F (stereo not drawn),/,-1.1,-1.4,/,5.1,-4.0,/,/,/,/
CN(C(=O)COC(=O)c1ccccc1Cc1ccccc1)c1c(N)n(Cc2ccccc2)c(=O)[nH]c1=O,i,/,-5.1,-1.2,5.3,1.8,-2.8,6.7,8.5,0.4
Nc1cccc(C(=O)OCC(=O)c2ccccc2)c1,/,-2.3,3.7,/,-5.3,-0.3,-7.4,/,/,/
COc1ccc(C(CC(=O)N2CCCC(C)C2)c2c(O)cc(OC)cc2OC)cc1 (stereo not drawn),i,5.4,/,5.3,-10.4,-1.8,-6.5,-35.5,-48.3,-4.4
CS(=O)(=O)N(CCc1ccccc1)CC(=O)N1CCCC1,i,-3.8,-4.6,-9.4,-6.9,0.8,-7.1,13.9,6.2,3.1
Clc1cccc(Nc2ncnc3c2cnn3-c2ccccc2)c1,i,3.4,12.7,-1.4,16.6,1.4,/,-31.9,-26.1,2.5
COc1ccc(S(=O)(=O)NCC2CCCN(C(=O)c3occc3C)C2)cc1 (stereo not drawn),i,5.4,-7.8,0.2,0.0,-4.2,-1.3,8.0,4.5,1.2
Cc1ccc(Br)cc1S(=O)(=O)Nc1cccnc1,i,?,-0.6,-4.7,9.5,-1.3,-5.1,5.2,6.3,-0.2
O=C(NCCc1ccc(Cl)cc1)c1ccc(S(=O)(=O)N2CCCC2)cc1,i,-1.7,-3.0,2.5,3.7,1.3,-0.4,1.2,17.0,-3.4
CCOc1ccc(NC(=O)CN2C(=O)C(C)SC(C)C2=O)cc1 (stereo not drawn),/,-2.6,33.4,-1.9,-5.7,3.1,-1.5,9.0,13.8,0.2
COc1ccc(NC(=O)COC(=O)C2C3CC4OC(=O)C2C4C3)cc1 (stereo not drawn),i,-2.3,-5.4,2.4,2.6,2.4,-3.2,2.7,7.8,-0.5
COc1cc(/C=C/C(=O)OCc2cn3cc(Cl)ccc3n2)ccc1O,i,-4.0,26.7,1.5,-1.6,-2.5,1.2,-20.1,-25.1,5.2
O=C1N[C@H](Cc2c[nH]c3ccccc23)COC(=O)[C@H](Cc2ccc(F)cc2)C/C=C\C[C@H]1CC(=O)N(CCO)Cc1ccccc1,i,/,-0.1,0.9,/,/,-0.4,-7.9,-9.1,9.4
COc1ccccc1CC(=O)c1ccc(OCc2ccccc2)cc1,i,3.5,-3.4,-1.8,-2.2,1.6,0.4,-12.1,-21.4,-1.9
COc1cc(F)cc(-c2ccc3c(c2)c(-c2cccs2)c(-c2cc(OC)cc(OC)c2)n3C)c1,i,/,-6.2,4.2,/,/,1.0,8.4,4.8,-4.9
CN(C)S(=O)(=O)Oc1ccc(C(=O)Nc2cccc(C(F)(F)F)c2)cc1,i,8.7,-2.6,-2.1,18.7,-1.7,4.6,0.4,9.9,-1.6
Cc1ccccc1CN1CCC(n2nccc2NC(=O)c2ccc3c(c2)OCO3)CC1,i,-12.3,-0.7,0.4,9.8,-0.6,0.4,7.5,12.2,-2.3
Cc1cc2c(cc1S(=O)(=O)CCC(=O)N1CC(C)CC(C)C1)OCC(=O)N2 (stereo not drawn),i,-3.4,-1.2,-6.8,2.0,-3.7,12.0,5.7,-0.6,1.7
O=C(Nc1cc(=O)[nH]c2nc(-c3ccccc3)nn12)c1ccccc1Cl,i,60.8,-5.6,-1.1,12.4,-0.3,4.4,0.8,2.8,-1.1
O=C(COc1ccccc1C(=O)Nc1ccccc1)c1ccc(Br)cc1,/,17.5,-2.4,-1.0,21.8,0.6,-3.6,15.1,9.9,1.5
C(/C=C/c1ccccc1)=N/N1CCN(c2ccccc2)CC1,/,-27.9,-0.5,/,-27.0,-4.5,-0.6,/,/,/
CN1CCN(CCCCOc2ccccc2-c2ccccc2)CC1,i,-17.8,2.1,4.3,47.2,2.7,-3.0,4.2,-9.0,1.2
CC(C)(C)NC(=O)C(c1cccs1)N(Cc1ccco1)C(=O)c1csnn1 (stereo not drawn),i,12.7,4.3,0.4,15.1,6.4,1.2,1.7,0.7,-1.5
N#Cc1ccc(N2C(=O)[C@@H]3C(C(=O)c4cnccn4)=NN[C@@H]3C2=O)cc1,i,-0.4,14.4,-3.0,-3.1,3.0,7.2,-1.2,4.1,-0.5
CCOC(=O)N1CCC(NC(=O)C2CCN(c3nc(-c4ccc(OC)cc4)no3)CC2)CC1,/,8.9,-12.5,/,-20.5,4.9,20.0,/,/,/
N=C1C(c2nc3ccccc3s2)=C(O)CN1Cc1ccco1,/,-3.1,97.6*,/,-1.5,4.9,1.5,/,/,/
Cc1ccc(/C=N/NC(=O)C(C)Oc2ccccc2[N+](=O)[O-])s1 (stereo not drawn),/,-8.3,-1.0,/,-1.9,-0.9,-13.0,/,/,/
CC(Sc1nnc(C2CC2)n1C1CC1)C(=O)Nc1ccccc1C#N (stereo not drawn),i,/,/,-4.6,/,/,-0.4,1.2,-0.5,-0.9
c1ccn2c(CNc3ncnc4sccc34)nnc2c1,/,-7.0,-3.7,/,-8.8,3.4,-4.9,/,/,/
O=C(NC1CCCCC1)c1cc([N+](=O)[O-])ccc1N1CCOCC1,/,-13.4,0.9,/,2.6,2.3,-2.3,/,/,/
CCC(C)Nc1nc2c(c(=O)[nH]c(=O)n2C)n1CCOc1ccccc1 (stereo not drawn),i,/,98.3*,2.5,6.8,-1.4,5.7,0.7,-0.1,2.1
O=C(NCCSc1ccccc1)c1ccccc1Cl,i,3.0,-4.8,1.6,3.4,-1.4,-3.9,-1.6,4.8,-1.5
CCCCCCCCC(=O)N/N=C/c1ccccn1,i,-21.3,1.3,-1.3,-53.7,9.1,0.2,-48.6,-49.4,-14.6
COc1ccc(-c2noc(CN(C)Cc3ccccc3)n2)cc1,i,-4.1,0.0,-4.7,-7.9,-0.4,/,/,/,/
# (listing goes on)
SMILES,FGF22 binding,Calb FLC,ALR H2O2 inh,MLL AF4-AF9 inh,T cruzi repl,RanGTP-Impb inh,Beta apoptosis,rRNA inh HTS,rRNA inh HTS OD600,rRNA inh HTS RFP
CCOc1ccc(C(=O)Cn2cnc3ccccc3c2=O)cc1,/,8.6,1.0,?,-0.9,?,/,0.2,4.0,0.0
COc1cccc(NC(=O)c2nnn(CCc3ccccc3)c2N)c1,i,12.1,2.1,-1.8,-15.5,3.2,2.1,-13.7,-21.6,0.0
CCN(CC)C(=O)CN1C(=O)C(=O)c2ccccc21,i,-67.7,3.7,-1.0,-0.4,?,-8.4,4.3,8.0,3.3
O=C(Nc1cccc(-c2csc(Nc3ccccc3)n2)c1)c1ccccc1,i,9.7,2.6,-14.4,22.3,-1.7,37.4,4.3,15.8,14.9
CCCOc1c(Br)cc(C(=O)NCC)cc1OC,/,-1.4,/,/,-8.3,1.5,0.6,/,/,/
CCCCN(CC)CCNC(=O)c1cc2c(=O)n(C)c3ccccc3c2n1C,i,8.8,-45.4,3.9,20.6,-1.5,3.6,-9.4,-11.1,4.7

# Bioassay records as filed in PubChem.
